Assay outcomes: PubChem BioAssay, National Center for Advancing Translational Sciences (NCATS)
D2 agonist – Beta-Arrestin HTS for Positive Allosteric Modulators of the Human D2 Dopamine Receptor: Agonists | activation, % (concentration not given with the values) | DiscoveRx PathHunter D2 beta-arrestin, luminescence, 90 min; 100% = 57 uM dopamine signal | 0.084% of 360,000 active | AID 624465, 2012 | D(2) dopamine receptor (Homo sapiens), P14416; in the data active = activation above about 40%; inconclusive = about 15% to 40%; inactive = below about 15%; also: compound concentration not given in the record; the text of the record calls up to 30% inactive
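DiscoveRx PathHunter D2 beta-arrestin cells (2,100/well) attached overnight, then compound-stimulated 90 min at 37 C in HBSS/10 mM HEPES/0.1% Tween-20 buffer; beta-galactosidase complementation read by luminescence after 1 h at ambient temperature. Dopamine 57 uM final (EC100) as control.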
D2 potentiator – Beta-Arrestin HTS for Positive Allosteric Modulators of the Human D2 Dopamine Receptor: Potentiators. potentiation, % (no concentration beside the values). D(2) dopamine receptor (Homo sapiens), P14416. DiscoveRx D2 beta-arrestin cells, luminescence, 90 min; 100% = 57 uM dopamine signal. AID 624464, 2012. 0.23% of 360,000 active; active = potentiation of 50% or more; inconclusive = 30% to 50%; inactive = 30% or less;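 also: compound concentration not given in the record; tested on top of an EC20 dose of dopamine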
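PathHunter D2 cells, attached overnight at 37 deg C, received compound in DMSO plus dopamine at EC20 (50 nM final) for 90 min at 37 deg C. Beta-arrestin recruitment was read as luminescence after 1 h with detection reagent at ambient temperature.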
CtBP-E1A inh – qHTS Assay for Inhibitors of the CtBP/E1A Interaction; CtBP / adenovirus E1A interaction (AlphaScreen); AlphaScreen GST-E1A/His-CtBP binding, 1536-well; active compounds read low; control for the full effect not named in the record; activity change, % (test concentration not listed); 0.49% of 340,000 active; in the data active means activity change below about -65%; inconclusive means about -30% to -65%; inactive means above about -30%; also: % is scaled to controls: 0 for no effect and ±100 for the full control effect
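GST-E1A and His-tagged CtBP (125 nM each as 5X stock) were preincubated with pin-transferred compound for 2 h at 37 °C in the dark, then glutathione donor and nickel acceptor beads were added for 1 h before AlphaScreen reading.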
TRPML1 agonist – qHTS for Agonists of the Human Mucolipin Transient Receptor Potential 1 (TRPML1). Mucolipin-1 (Homo sapiens), Q9GZU1. TRPML1-expressing cells, Ca2+ dye fluorescence, FDSS; host cell line not named in the record; reference of the full effect not given here. activation, % (concentration not given with the values). 0.12% of 410,000 active. AID 624414, 2012; in the data active = activation above about 50%; inconclusive = about 30% to 50%; inactive = below about 30%; also: 0% is about no effect; the text of the record puts the active cut at 80%
Target sequence (Q9GZU1 whole entry, looked up): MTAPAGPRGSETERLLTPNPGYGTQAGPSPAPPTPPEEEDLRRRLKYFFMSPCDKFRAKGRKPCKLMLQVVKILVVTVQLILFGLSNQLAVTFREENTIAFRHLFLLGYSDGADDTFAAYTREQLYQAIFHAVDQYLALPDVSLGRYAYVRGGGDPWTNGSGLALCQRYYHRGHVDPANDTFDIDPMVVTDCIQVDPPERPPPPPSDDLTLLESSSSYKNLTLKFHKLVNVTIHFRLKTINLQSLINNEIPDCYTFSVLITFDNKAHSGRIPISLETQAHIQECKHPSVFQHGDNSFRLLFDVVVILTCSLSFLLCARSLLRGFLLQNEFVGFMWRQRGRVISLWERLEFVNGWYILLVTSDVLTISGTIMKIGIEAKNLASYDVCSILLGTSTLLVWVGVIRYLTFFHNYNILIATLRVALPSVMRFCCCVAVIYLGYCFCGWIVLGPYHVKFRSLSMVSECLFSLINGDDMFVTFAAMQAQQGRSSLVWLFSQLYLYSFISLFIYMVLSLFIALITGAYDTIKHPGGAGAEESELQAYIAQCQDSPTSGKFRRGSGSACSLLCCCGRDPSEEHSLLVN
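Kinetic FDSS Ca2+ read in Tet-induced TRPML1-DL cells (ABD Ca8 dye plus quencher, 45-90 min RT loading): baseline, then compound, then 110 s agonist window; EC80 agonist 54-4 at 4uM final added afterwards for a 110 s antagonist window.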
PINK1 expr mod – A Quantitative High throughput Screen to Identify Chemical Modulators of PINK1 Expression | PINK1 immunofluorescence, high-content cytometry, 24 h | Potency, µM (series often up to 76.6 µM), for inactives: at the highest dose activation (PINK1 increase), actives largely listed as activators | 0.2% of 410,000 active | AID 624263, 2012; active = well fitted activation curve with a large enough effect; inconclusive = small, poorly fitted or top-dose-only effect; inactive = flat fitted curve, though single readings scatter; cell line not stated here;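 also: potency is read from the fitted curve at half-maximal effect; % of control where 0% means no effect; nearly all actives have a fitted effect of over 65% in size; a mitochondrial uncoupler was the plate control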
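Measures PINK1 amount and localization on or inside mitochondria by immunofluorescence. Stable cells get compounds at 5 concentrations for 24 hours before fixation and staining; CCCP controls included.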
Six1-Eya2 blk – qHTS Assay for Inhibitors of the Six1/Eya2 Interaction | Homeobox protein SIX1 (Homo sapiens) + Protein phosphatase EYA2 (Homo sapiens), … | AlphaScreen GST-Six1/His-Eya2 binding, biochemical; active compounds read low; control for the full effect not named in the record | activity change, % (concentration not given with the values) | 0.56% of 360,000 active | AID 651725, 2012; in the data active = activity change below about -65%; inconclusive = about -30% to -65%; inactive = above about -30%; also: % is scaled to controls: 0 for no effect and ±100 for the full control effect
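Six1/Eya2 binding was read as AlphaScreen signal after compounds were pinned into GST-Six1 plus His-tagged Eya2 (5X stock 250/500 nM) in pH 8.0 Tris/NaCl/TCEP buffer, beads added, then incubated 1 h, 37 C, dark.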
* = called active by the depositor; ? = inconclusive; . = not tested or not shown; & = joins results of further samples; [ ] = remark or other dose.

entry	molecule	D2 potentiator	Six1-Eya2 blk	PINK1 expr mod	CtBP-E1A inh	D2 agonist	TRPML1 agonist
1	CCC(=O)Nc1cccc(C(=O)OC)c1	-4	5	-1.9%	-7	-4.6	0.1
2	O=C(NCCC1=CCCCC1)c1[nH]c(C(F)(F)F)nc1-c1ccccc1	-1	?	?	-21	0.5	-0.4
3	Cc1cc(C)n(S(=O)(=O)c2cc(Cl)ccc2Cl)n1	-17	10	3.6%	12	-2.1	1.7
4	O=C(N1CCCC1)C(F)(F)Oc1ccc(F)cc1	-1	0	1.3%	-28	-0.4	-0.6
5	CC(OC(=O)c1cc(S(=O)(=O)N(C)c2ccccc2)ccc1Cl)C(=O)Nc1ccc2c(c1)OCCO2 (configuration not stated)	-22	-10	-0.7%	-1	0.0	2.0
6	COc1ccc(N(CC(=O)NCc2cccnc2)S(=O)(=O)c2ccccc2)c(OC)c1	-7	-4	0.7%	8	0.4	-0.1
7	CCCCN(CCCC)CCNC(=O)CN1C(=O)CSc2ccc(S(=O)(=O)N3CCOCC3)cc21	-19	0	-0.5%&0.4%	1	-3.0	0.7&-1.2
8	CC(C)Oc1ccc(/C=C(/NC(=O)c2ccccc2)C(=O)NCCC(=O)O)cc1	-1	3	-1.2%	-1	-3.6	0.5
9	CCc1nnc(NC(=O)c2cc(-c3ccccn3)nc3ccccc23)s1	-5	-15	-1.6%	.	4.9	3.0
10	Cc1cccc(OCC(=O)NC(=S)Nc2ccccc2N2CCOCC2)c1	-2	-8	1.5%	-5	-0.6	0.0
11	O=C(NCCCN1CCc2ccccc2C1)Nc1ccc(Cl)cc1	-16	12	-6.7%[38.3 µM]	-1	-2.9	1.0
12	Cc1nc(-c2ccc(Cl)cc2)sc1C(=O)O	-11	-13	1.5%	1	-4.0	0.1
13	Cc1cccc(NC(=O)/C(=C\c2ccco2)NC(=O)c2cccs2)c1	-4	-6	-0.8%	1	-1.9	-0.7
14	O=C(Cn1ccc2ccccc2c1=O)NCC(=O)N1CCN(c2ccccc2F)CC1	-7	4	6.4%	4	5.5	-0.5
15	CCn1c(C(=O)NCc2ccccn2)cc2sccc21	-4	1	-4.6%[38.3 µM]	-5	0.3	0.2
16	CCOC(=O)C(=CNc1ccc(C)cc1C)C(=O)OCC	17	9	-1.2%	11	1.5	3.7
17	CC(C)CN(CCNC(=O)CN1N=C(c2ccc(Cl)cc2)CCC1=O)CC(C)C	-10	8	3.6%	7	-18	.
18	O=C(Nc1ccccc1F)Nc1ccc([N+](=O)[O-])cc1Cl	-10	-6	9.8%	0	-5.3	0.0
19	Cc1noc(C)c1NC(=O)Nc1ccc2c(c1)C(=O)N([C@H](C)CO)C[C@H](C)[C@@H](CN(C)S(=O)(=O)c1cn(C)cn1)O2	.	1	1.6%	3	0.6	-0.6
20	CCOC(=O)c1cc2c(=O)n3cccc(C)c3nc2n(CCCOC)c1=NC(=O)c1cccnc1	2	2	2.2%	-3	-2.7	-0.9
21	O=C(O)CSc1nc(-c2ccccc2)c(-c2ccccc2)[nH]1	-12	-2	-0.3%	.	-3.8	0.4
22	O=C(CN1C(=O)C2C3C=CC(C4CC34)C2C1=O)NCc1ccco1 (configuration not stated)	-3	23	-0.3%	17	-3.0	-0.5
23	N#Cc1ccccc1S(=O)(=O)N1CCN(c2cnccn2)CC1	1	14	-0.6%	1	-2.6	0.2
24	CC(=O)c1ccc(NC(=O)c2cc3ccccc3o2)cc1	-3	2	-0.5%	10	1.4	0.7
25	O=C(NCc1ccc(F)cc1Cl)C1CC(=O)N(C2CCCCCCC2)C1 (configuration not stated)	-5	-8	0.0%	-16	-2.5	0.6
26	CC1(C(=O)NS(=O)(=O)c2ccccc2Cl)CCN1C(=O)COc1ccc(Cl)cc1 (configuration not stated)	2	3	1.4%	1	2.6	-0.2
27	CC1(C)C2CC=C(/C=N/n3cnnc3)C1C2 (configuration not stated)	3	6	0.4%	1	-1.3	-0.2
28	COc1cc(C#Cc2c(C=O)n(C)c3ccccc23)cc(OC)c1	-9	20	?	16	-3.2	0.3
29	CN(C(=O)c1cccc(NC(=O)Cc2ccc(NC(=O)C3CCN(C(=O)C4CCCC4)CC3)cc2)c1)C1CCCC1	5	1	-1.1%	-20	1.4	1.9
30	NNS(=O)(=O)c1ccc(N2CCCC2=O)c([N+](=O)[O-])c1	-8	8	-0.5%	.	1.0	0.4

Random excerpt: 6 compounds from above
entry	molecule	D2 potentiator	Six1-Eya2 blk	PINK1 expr mod	CtBP-E1A inh	D2 agonist	TRPML1 agonist
13	Cc1cccc(NC(=O)/C(=C\c2ccco2)NC(=O)c2cccs2)c1	-4	-6	-0.8%	1	-1.9	-0.7
23	N#Cc1ccccc1S(=O)(=O)N1CCN(c2cnccn2)CC1	1	14	-0.6%	1	-2.6	0.2
30	NNS(=O)(=O)c1ccc(N2CCCC2=O)c([N+](=O)[O-])c1	-8	8	-0.5%	.	1.0	0.4
4	O=C(N1CCCC1)C(F)(F)Oc1ccc(F)cc1	-1	0	1.3%	-28	-0.4	-0.6
25	O=C(NCc1ccc(F)cc1Cl)C1CC(=O)N(C2CCCCCCC2)C1 (configuration not stated)	-5	-8	0.0%	-16	-2.5	0.6
14	O=C(Cn1ccc2ccccc2c1=O)NCC(=O)N1CCN(c2ccccc2F)CC1	-7	4	6.4%	4	5.5	-0.5

In another format: entries from further up.
(19) Cc1noc(C)c1NC(=O)Nc1ccc2c(c1)C(=O)N([C@H](C)CO)C[C@H](C)[C@@H](CN(C)S(=O)(=O)c1cn(C)cn1)O2
(4) O=C(N1CCCC1)C(F)(F)Oc1ccc(F)cc1
(11) O=C(NCCCN1CCc2ccccc2C1)Nc1ccc(Cl)cc1
(17) CC(C)CN(CCNC(=O)CN1N=C(c2ccc(Cl)cc2)CCC1=O)CC(C)C
(12) Cc1nc(-c2ccc(Cl)cc2)sc1C(=O)O
(20) CCOC(=O)c1cc2c(=O)n3cccc(C)c3nc2n(CCCOC)c1=NC(=O)c1cccnc1
(25) O=C(NCc1ccc(F)cc1Cl)C1CC(=O)N(C2CCCCCCC2)C1 (configuration not stated)

| assay / entry | 19 | 4 | 11 | 17 | 12 | 20 | 25 |
| --- | --- | --- | --- | --- | --- | --- | --- |
| D2 potentiator | . | -1 | -16 | -10 | -11 | 2 | -5 |
| Six1-Eya2 blk | 1 | 0 | 12 | 8 | -13 | 2 | -8 |
| PINK1 expr mod | 1.6% | 1.3% | -6.7%[38.3 µM] | 3.6% | 1.5% | 2.2% | 0.0% |
| CtBP-E1A inh | 3 | -28 | -1 | 7 | 1 | -3 | -16 |
| D2 agonist | 0.6 | -0.4 | -2.9 | -18 | -4.0 | -2.7 | -2.5 |
| TRPML1 agonist | -0.6 | -0.6 | 1.0 | . | 0.1 | -0.9 | 0.6 |

Additional results.
entry	molecule	D2 potentiator	Six1-Eya2 blk	PINK1 expr mod	CtBP-E1A inh	D2 agonist	TRPML1 agonist
31	O=C(C1CCCN(S(=O)(=O)c2ccccc2)C1)N1CCCCCC1 (configuration not stated)	-5	14	2.6%	0	-0.6	-0.5
32	O=C(N/N=C/c1ccc(O)c(O)c1)C1c2ccccc2Oc2ccccc21	2	-6	1.9%	-2	-1.2	0.3
33	Cc1cc(N2CCC(C)CC2)nc(NCc2ccccc2)n1	-8	2	35µM*	-4	-2.5	15
34	CCN(CC)c1ccc(/C=N/NS(=O)(=O)c2cccc([N+](=O)[O-])c2)cc1	2	-8	0.8%	-2	-1.6	0.7
35	Cc1ccc(C(=O)CN2/C(=C(\O)c3ccccc3)C(=O)c3ccccc3S2(=O)=O)c(C)c1	-5	18	-0.5%	-13	-1.1	1.6
36	CN(C)CCCN(Cc1ccccc1)C(=S)Nc1ccc(OC(F)F)cc1	-25	1	-1.2%	2	-0.5	-0.1
